# Assay outcomes (PubChem BioAssay)
# H5N1 CPE – MDCK cell protection from H5N1 avian flu; inhibition, % at 50 µM; cytopathic effect, luminescence, 72 h; active compounds read high; no value below 0 was filed and about half of the inactive calls have no number; reference of the scale not given here; AID 740, 2007; 96,000 compounds, 0.07% hits; in the data active = inhibition above about 25%
# * = called active by the depositor; i = inactive. A portion of the library; count on the stated rates, not on these rows.
SMILES | H5N1 CPE
CCOc1ccc(C2/C(=C(\O)c3ccc(OC)c(OC)c3)C(=O)C(=O)N2c2cc(C)on2)cc1OC (configuration not stated) | 0.1
CC(C)c1cc(C(N)=O)c(NC(=O)C2CCC2)s1 | i
Cc1ccc(CC(=O)N2CCC(c3nc4c(nnn4Cc4ccccc4)c(=O)[nH]3)CC2)cc1 | 1.5
Cn1c(=O)c2c(SC3CCCC3)nc(C3CC3)nc2n(C)c1=O | 0.8
COc1ccc(OC)c(-c2cc(C(=O)Nc3c(C)nn(Cc4ccccc4Cl)c3C)no2)c1 | i
COc1ccc(-c2cc(C(F)(F)F)c(C#N)c(SCC(=O)Nc3ccccc3C#N)n2)cc1 | i
Cc1ccc(S(=O)(=O)N(CC(=O)N2CCC(C)CC2)Cc2ccccc2F)cc1 | 2.0
COC(=O)c1cc(C#N)c(Oc2ccccc2OC)nc1C | i
COc1ccc(NC(=O)C(F)(F)F)cc1OC | i
CCCNC(=O)Cc1c(O)c2ccccc2[nH]c1=O | i
CCCCCC1CCC(C(=O)O)CC1 (configuration not stated) | 0.5
Cc1ccc(OCC(=O)NN=C2c3ccccc3-c3ccccc32)cc1 | 0.1
CC1CCN(C(=O)CSc2nnc(-c3cccnc3)n2C2CCCCC2)CC1 | 1.2
Cc1cc(N2CCCC(C(=O)Nc3ccc4c(c3)CCC4)C2)n2ncnc2n1 (configuration not stated) | i
Cc1oc(-c2ccccc2)nc1CS(=O)CC(=O)O (configuration not stated) | 1.2
CN(C)CC#CCOCCOCCC#N | i
CCOC(=O)c1ccccc1NC(=O)Cn1cnc2c(cnn2-c2ccc(F)cc2)c1=O | i
Nc1ccc(N2CCCCCC2)cc1 | i
COc1cc(OC)nc(NC(=O)CSc2nc3ccccc3[nH]2)n1 | 1.9
CCOC(=O)c1ccccc1NC(=O)CSc1nc2ccccc2o1 | i
O=C(CCc1ccccc1)Nc1ccc2c(c1)OCCO2 | i
Cc1ccc(S(=O)(=O)NC2=NCCC2)cc1 | i
CCN(c1cccc(C)c1)S(=O)(=O)c1ccc2[nH]c(=O)c(=O)[nH]c2c1 | 1.7
O=C(O)C1CC(O)CN1S(=O)(=O)c1cccs1 (configuration not stated) | 0.1
CC1(C)Cc2nc3sc4c(=O)n(CC(=O)NCc5ccco5)cnc4c3cc2CO1 | i
COc1ccccc1NC(=O)CN1CCN(CC(=O)Nc2ccc3c(c2)OCCO3)CC1 | i
Cc1ccc(-n2c(C)cc(/C=N/Nc3ccc([N+](=O)[O-])cn3)c2C)c(C)c1 | i
CCN1CCCC(OC(=O)Nc2ccccc2)C1 (configuration not stated) | i
CN1CCn2c1nc(N1CCOCC1)nc2=O | i
CC(C)C(c1nnnn1Cc1ccco1)N1CCN(c2nc3ccccc3s2)CC1 (configuration not stated) | i
Cc1ccc2c(c1)c1ncn(CCC3=CCCCC3)c(=O)c1n2C | 1.3
CCOC(=O)N1CCN(S(=O)(=O)c2cccc3cccnc23)CC1 | 2.0
CCOC(=O)C1CCN(C(=O)CCc2c(C)nc3ncnn3c2C)CC1 | 0.3
CC(C)Sc1nc2c(c(=O)n(C)c(=O)n2C)n1C | 2.0
NC(N)=N/N=C/c1ccc(OCc2ccc(Cl)cc2)cc1 | i
COc1cccc(-c2nc(-c3ccc(NC(=O)c4cccs4)cc3)no2)c1 | 1.2
Cn1c(=O)c2c(=O)cc(NNC(=O)C(C)(C)C)[nH]c2n(C)c1=O | 1.8
CCn1c(=O)c2cc(C(=O)NCCN3CCOCC3)sc2c2ccccc21 | 1.7
CNc1nc(-c2c[nH]c3ccccc23)cs1 | i
CCC(=O)Nc1ccc(N2CCN(Cc3ccccc3F)CC2)cc1 | i

# Shown field by field: part of the list above
canonical_smiles: O=C(O)C1CC(O)CN1S(=O)(=O)c1cccs1 (configuration not stated)
- H5N1 CPE = 0.1
canonical_smiles: CC1(C)Cc2nc3sc4c(=O)n(CC(=O)NCc5ccco5)cnc4c3cc2CO1
- H5N1 CPE = i
canonical_smiles: COc1ccccc1NC(=O)CN1CCN(CC(=O)Nc2ccc3c(c2)OCCO3)CC1
- H5N1 CPE = i

# (listing goes on)
SMILES | H5N1 CPE
CN1C(=O)c2ccc(C(=O)NC3CCCCC3)cc2C1=O | 0.0
CC1CCN(S(=O)(=O)c2ccc(NC(=O)Cc3ccccc3)cc2)CC1 | 2.1
COc1ccc(CCNC(=O)Cn2cnc3c2c(=O)n(C)c(=O)n3C)cc1OC | i
O=C(CCc1ccccc1)Nc1cccc(NC(=O)CCc2ccccc2)c1 | i
CCOc1ccc(C(=O)CCN2CCCCC2)cc1 | i
COC(Cc1n[nH]c(=S)n1-c1ccc(Cl)cc1)OC | 0.4
O=C(C1CCC1)N1CCc2cc(S(=O)(=O)NCc3ccco3)ccc21 | 0.2
CCCn1c(CNC(=O)c2ccccc2)nc2ccccc21 | 1.2
CC1CCCCN1C(=O)CSc1nc2cc3c(cc2c(=O)n1Cc1ccc2c(c1)OCO2)OCO3 (configuration not stated) | i
COC(=O)c1cccc(OC(N)=O)c1 | i
CCOC(=O)Cc1csc(NC(NC(=O)OCC)(C(F)(F)F)C(F)(F)F)n1 | i
CC(=O)Nc1cc(C(=O)c2ccccc2)ccc1N1CCOCC1 | 0.3
CC1(C)C(c2ccccc2)=NC(c2cccnc2)N1O (configuration not stated) | 0.5
COC(=O)c1c[nH]n2c(=O)cc(CCl)nc12 | 0.4
Cc1ccc(NC2c3ncccc3C(=O)N2C2CCCCC2)cc1 (configuration not stated) | 0.1
CC1(C)CC(=O)C2=C(C1)OC(/N=C/N1CCOCC1)=C(C#N)C2c1ccccc1 (configuration not stated) | i
Cc1ccc(-c2c3c(=O)n(C)c(=O)n(C)c3cn2-c2ccccc2O)cc1 | 0.7
CN1CC(=O)Nc2ccc(F)cc2C1=O | 0.1
O=C(CCSc1ccc(F)cc1)Nc1ccc(-n2cnnn2)cc1 | i
CCC(CC)C(=O)OCC(=O)Nc1ccc(S(=O)(=O)N2CCOCC2)cc1OC | 0.2
Cc1ccc(NCN2C(=O)C3C4C=CC(C4)C3C2=O)cc1 (configuration not stated) | i
Cc1ccc(-n2ncc3c(=O)[nH]c(SCC(=O)N4CCOCC4)nc32)cc1 | i
O=C(Cn1cncn1)N/N=C/c1c2ccccc2cc2ccccc12 | 1.7
COc1ccccc1N1CCN(C(=O)CN(c2ccc(C)c(C)c2)S(C)(=O)=O)CC1 | i
CC(=O)Nc1ccccc1-c1nc2ccccc2nc1OCC(=O)c1ccc(Br)cc1 | i
CCCCOc1ccc(OCCNS(=O)(=O)N(C)C)cc1 | i
Cc1cccc(C)c1N(CC(=O)Nc1cc(Cl)ccc1Oc1ccccc1)S(C)(=O)=O | i
CC(=O)Nc1ccc(OCC=C(Cl)Cl)cc1 | 0.9
CCOC(=O)c1ccc2c(c1)n(CCO)c(C)[n+]2CC | 0.1
CCN(CC)CCNC(=O)Cc1nn(CC)c(=O)c2ccccc12 | i
CC(CO)Nc1nc(SCc2ccccc2)nc2sc3c(c12)CCC3 (configuration not stated) | 3.0
Cc1nn(-c2ccc(C(F)(F)F)cn2)c(C)c1Oc1ccccc1O | i
C#CCn1c(=NC(=O)c2ccc(Br)s2)sc2cccc(OC)c21 | i
O=C(CCCn1c(=O)c2sccc2n(Cc2cc(=O)n3ccccc3n2)c1=O)NCc1ccco1 | 2.8
CCOC(=O)c1sc2nccc(N(C)C)c2c1N=CN(C)C | 0.6
COc1ccc(CN2C(=O)CCC2(C)C(=O)NC2CCCCC2)c(OC)c1 (configuration not stated) | i
CCOC(=O)/C(=C/c1c[nH]c2ccccc12)NC(C)=O | 1.3
C/C(CCc1c[nH]c2ccccc12)=N\O | i
O=C(O)/C=C\C(=O)NCc1ccccc1 | i
Cc1ccccc1C(=O)c1cccn1CC(=O)NCc1ccco1 | 2.0
CCOc1cc2[nH]c(=O)n(Cc3ccccc3)c(=O)c2cc1OCC | 1.2
COc1ccc(N2C(=O)CSC23C(=O)N2CCCc4cccc3c42)cc1 (configuration not stated) | 0.8
Cc1ccc(S(=O)(=O)ON=C2CCN(S(=O)(=O)c3ccccc3)CC2)cc1 | 2.9
CC1CC(C)(C)NC(=S)S1 (configuration not stated) | 0.1
CCCN(c1ccc(OCC)cc1)c1ncnc2nc[nH]c12 | 0.3
COC(=O)c1cccc(Nc2nc3ccccc3nc2C)c1 | i
O=C(CSc1nnnn1C1CCCCC1)NCc1ccc2c(c1)OCO2 | i
CCOc1ccc(-c2onc(C(F)(F)F)c2-c2cscn2)c(O)c1 | i
COC(=O)c1ccccc1NC(=O)C12CCC(C)(C(=O)O1)C2(C)C (configuration not stated) | 0.6
Cc1cc(C(=O)NC2CCCC2)on1 | 0.8
CN(C)S(=O)(=O)c1ccc(C(=O)NCCSc2ccccc2)cc1 | 0.4
CCOC1Cc2ccccc2N(C(N)=O)c2ccccc21 (configuration not stated) | 1.5
Clc1ccc(-n2ncc3c(NCc4cccs4)ncnc32)cc1 | i
CCCCCn1c(SCCC(C)C)nc2c1c(=O)[nH]c(=O)n2C | 0.9
COc1cc2c(cc1OC)C1(CCCC1)C(N)=C2C#N | 0.8
CCc1nnc(NC(=O)c2ccc(Cl)c(S(=O)(=O)N3CCc4ccccc43)c2)s1 | 0.4
CCn1c(SCC(=O)NCCc2ccccc2)nnc1-c1cccs1 | 0.3
COC(=O)c1cc(NC(=O)Nc2cccc(Cl)c2)ccc1Cl | 5.5
CCc1ccccc1NC(=O)/C(C#N)=C\c1ccc(Sc2ccccc2)o1 | i
CCOC(=O)c1c(N)sn(-c2ccccc2)c1=S | i

# Shown as labelled records: 2 of the compounds above
COC(=O)c1cc(NC(=O)Nc2cccc(Cl)c2)ccc1Cl
  H5N1 CPE: 5.5

CCc1ccccc1NC(=O)/C(C#N)=C\c1ccc(Sc2ccccc2)o1
  H5N1 CPE: i

# Further results follow.
SMILES | H5N1 CPE
CCCn1c(SCC(N)=O)nnc1-c1ccco1 | i
O=C(O)CCC(=O)NCCn1c(-c2ccccc2)csc1=Nc1ccccc1 | 2.0
O/N=C\c1cccn1-c1ccc(Br)cc1 | i
CCOC(=O)c1c(-c2ccccc2)nc2ccc(Cl)cn12 | 2.5
O=C(NCC1COc2ccccc2O1)c1ccc(NC(=O)C2CCCO2)cc1 (configuration not stated) | 0.7
COc1cccc(-c2noc(C3CCCN(C(=O)Cc4ccccc4)C3)n2)c1 (configuration not stated) | i
CCN(CC)S(=O)(=O)c1cccc(-c2nnc(SC(C)C(=O)NCCC3=CCCCC3)o2)c1 (configuration not stated) | 4.4
CN1C=CC(=C2C(=O)c3ccccc3C2=O)C=C1 | 0.3
CC(C)=C1C2CCC1C1C(=O)N(c3nc(-c4ccc(C(C)C)cc4)c(C)s3)C(=O)C21 (configuration not stated) | 0.1
COCCCNC(=O)CN(c1cccc(Cl)c1)S(C)(=O)=O | 0.2
Cn1c(CSCc2ccc(F)cc2)nnc1SCC(=O)N1CCN(c2ccccc2)CC1 | 2.1
Cc1nc2ncnn2c(C)c1CCC(=O)NCCC1=CCCCC1 | i
FC(F)(F)c1cc(C(F)(F)F)c2ccc(N3CCN(c4ccc(Cl)cc4)CC3)nc2n1 | i
O=C(c1ccc2nc(-c3ccco3)c(-c3ccco3)nc2c1)N1CCN(c2ncccn2)CC1 | 1.7
CC(C)c1nc(-c2c(N)n(C)c(=O)n(C)c2=O)sc1C(=O)C(C)(C)C | 1.9
C=CCN(CC=C)C(=S)Nc1ccccc1 | 0.2
CCNC(=O)COn1c(SCC(=O)NCC)nc2ccccc2c1=O | 0.1
CC(=O)N1c2c(cc(Br)cc2S(=O)(=O)NCC2COc3ccccc3O2)CC1C (configuration not stated) | 1.1
CCCCCCC(=O)NCC(=O)OCC(=O)c1ccccc1 | i
O=C(NC(NNc1ccc([N+](=O)[O-])cc1)(C(F)(F)F)C(F)(F)F)c1ccc(Cl)cc1 | i
C=CCn1c(SCc2c(C)noc2C)nc2sc(C)c(C)c2c1=O | 11.3
COc1ccc(C2(C(=O)NCC3CCCO3)CCOCC2)cc1 (configuration not stated) | 0.7
O=C(N/N=C/c1ccc([N+](=O)[O-])cc1)c1ccc2nc[nH]c2c1 | i
Cc1csc2ncc(C(=O)NCCc3ccccc3)c(=O)n12 | 0.2
CC12CN(C(=O)c3ccccc3)C3(C#N)CC1CCC23C (configuration not stated) | 3.8
COc1ccccc1NC(=O)c1ccccc1NS(=O)(=O)N1CCCC1 | i
O=C(C1CCCN(S(=O)(=O)c2cccc3nonc23)C1)N1CCC(Cc2ccccc2)CC1 (configuration not stated) | 6.5
O=C(Nc1ccc(Cl)cc1)c1csc(-c2ccccc2)n1 | i
COc1ccc(OC)c(S(=O)(=O)NCc2cn3c(C)csc3n2)c1 | 1.6
CCc1nc(SCC(=O)NCc2ccco2)c2c(=O)n(C)c(=O)n(C)c2n1 | 5.4
FC(F)(F)c1ccc2c(c1)N(CCCN1CCN(CCCl)CC1)c1ccccc1S2 | i
Cc1ccc2[nH]c3c(NCCN4CCOCC4)ncnc3c2c1 | 3.0
Cc1ccc(C(=O)CSc2nnc(-c3ccco3)n2CC2CCCO2)cc1 (configuration not stated) | i
COc1ccnc(N=CNOCc2ccc(F)cc2Cl)c1C#N | i
Cn1nc(-c2ccc(OCC(=O)Nc3cccnc3)cc2)c2ccccc2c1=O | i
CCOC(=O)C1CCN(Cc2nc3ccccc3c(=O)n2-c2ccc(OCC)cc2)CC1 | i
Cc1oc(-c2cccc(Cl)c2)nc1CN1CCCC(C(=O)NCc2ccco2)C1 (configuration not stated) | i
Cc1nc2ccc(S(=O)(=O)NCC(=O)N3CCN(c4ccccn4)CC3)cc2s1 | 0.8
CC(=O)c1sc(N)c(C(=O)OC(C)C)c1C | i
Clc1ccc(-c2nnc(CSc3nnc(-c4cccs4)o3)o2)cc1 | 0.6
Cc1c(N(C)C)nc2ccccc2c1N | i
COc1cc(S(=O)(=O)N(Cc2ccco2)C2CCCC2)ccc1-n1cnnn1 | 2.5
COc1ccc(S(=O)(=O)CC(O)CN2CCCC2=O)cc1 (configuration not stated) | i
